Source: PubChem BioAssay
PV pol inh = inhibitors of poliovirus RNA polymerase binding and polymerization. poliovirus polymerase elongation, fluorescence polarization; stronger effect = lower value. % elongation, % (compound at 16.7 µg/mL). actives 0.66% (n = 150,000). AID 588519; in the data active means % elongation below about 90%; further: some results filed as inactive read as strong as hits
Target sequence (P03300 1749-2209 limits assumed): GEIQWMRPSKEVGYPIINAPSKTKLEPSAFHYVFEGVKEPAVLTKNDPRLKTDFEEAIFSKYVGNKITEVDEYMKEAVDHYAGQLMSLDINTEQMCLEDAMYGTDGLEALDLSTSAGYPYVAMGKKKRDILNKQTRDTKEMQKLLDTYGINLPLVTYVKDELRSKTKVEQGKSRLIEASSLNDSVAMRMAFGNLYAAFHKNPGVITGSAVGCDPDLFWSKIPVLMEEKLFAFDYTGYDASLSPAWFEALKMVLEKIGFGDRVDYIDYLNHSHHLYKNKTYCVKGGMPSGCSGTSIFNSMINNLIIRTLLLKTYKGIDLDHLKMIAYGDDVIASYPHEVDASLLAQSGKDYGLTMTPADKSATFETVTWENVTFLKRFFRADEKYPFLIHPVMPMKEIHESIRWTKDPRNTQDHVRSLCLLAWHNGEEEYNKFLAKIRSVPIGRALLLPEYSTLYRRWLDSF
PV pol inh intensity = second read-out of PV pol inh, no call of its own (marks repeat the call); % elongation; measured here: total intensity read-out; formula for this scale not given here;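 total fluorescence in place of polarization; lower means less elongation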
* = called active by the depositor. Not all compounds are listed. The share of hits here may be higher or lower than overall.

What do the screens show for `COc1ccc(-c2noc(CC(=O)N(C)c3cccc(C)c3)n2)cc1`?
PV pol inh: 112; PV pol inh intensity: 113

What do the screens show for `COc1ccc(-c2nc(CN3CCC(C(=O)NCCc4ccccc4)CC3)c(C)o2)cc1OC`?
PV pol inh: 104; PV pol inh intensity: 109

How did Cc1ccc(CN(Cc2ccco2)C(=O)COc2ccc(Cl)cc2Cl)cc1 do in these assays?
PV pol inh: 105; PV pol inh intensity: 98

Results for CCc1ccc(CNC(=O)c2nn(-c3ccc(OC)c(Cl)c3)c(=O)c3c2c2ccccc2n3C)cc1 ?
PV pol inh: 107; PV pol inh intensity: 109

Results for COc1ccc(-n2nc3c(N4CCCC(C(=O)NCc5ccc(C)cc5)C4)nnc(C)c3c2C)cc1 (configuration not stated) ?
PV pol inh: 89*; PV pol inh intensity: 83*

Results for CCc1sc(Nc2cccc(Cl)c2C)nc1-c1cc2cccc(OC)c2oc1=O ?
PV pol inh: 104; PV pol inh intensity: 107

Results for COc1ccc(N2CCN(C(=O)CCc3nnc4n(C)c(=O)c5sccc5n34)CC2)cc1 ?
PV pol inh: 104; PV pol inh intensity: 106

What do the screens show for `COc1ccc(S(=O)(=O)N2CCN(c3ccccc3F)CC2)cc1-c1noc(C)n1`?
PV pol inh: 109; PV pol inh intensity: 110

How did CCOc1ccc(/C=C/c2nc(C#N)c(N3CCN(c4ccccc4)CC3)o2)cc1 do in these assays?
PV pol inh: 108; PV pol inh intensity: 109

What do the screens show for `O=c1n(Cc2ccc([N+](=O)[O-])cc2)c2ccccc2c2nc(-c3ccccc3)nn12`?
PV pol inh: 107; PV pol inh intensity: 101

Results for O=C(Cn1ncc2c1-c1ccccc1OC2)N1CCN(c2ccccc2)CC1 ?
PV pol inh: 108; PV pol inh intensity: 110

How did O=C(CSc1nc2ccsc2c(=O)n1-c1ccc(Cl)cc1)NCc1ccc(Cl)cc1 do in these assays?
PV pol inh: 108; PV pol inh intensity: 111

What do the screens show for `CCCCCNC(=O)c1cc2c(=O)n3ccccc3nc2n1C`?
PV pol inh: 113; PV pol inh intensity: 112

Results for COc1ccc(-n2cc(-c3ccccc3)c3c(NCc4cccc(Cl)c4)ncnc32)cc1 ?
PV pol inh: 111; PV pol inh intensity: 112

How did CCN(CC)C(=O)CSc1nc(-c2ccccc2)cc(-c2ccc(OC)cc2)c1C#N do in these assays?
PV pol inh: 103; PV pol inh intensity: 108

Results for Cc1cc2oc(C(=O)Nc3cccc(-c4nc5ccccc5o4)c3)c(C)c2cc1C ?
PV pol inh: 108; PV pol inh intensity: 116

How did CCOC(=O)c1sc(NC(=O)C(C)Oc2ccc(OC)cc2)c(C(=O)OCC)c1C (configuration not stated) do in these assays?
PV pol inh: 108; PV pol inh intensity: 104

How did CCCSCCCNC(=O)C1CCN(C(=O)c2cc3sccc3n2C)CC1 do in these assays?
PV pol inh: 110; PV pol inh intensity: 108

What do the screens show for `Cc1oc2ncn(CC(C)C)c(=O)c2c1C(=O)N1CCN(c2ccc(F)cc2)CC1`?
PV pol inh: 108; PV pol inh intensity: 104

How did O=c1c2cnn(-c3ccc(F)cc3)c2ncn1Cc1ccccc1Cl do in these assays?
PV pol inh: 110; PV pol inh intensity: 116

What do the screens show for `Cc1ccc(-n2nc3c(=O)n(CCCC(=O)NC(C)c4ccccc4)nc(C)c3c2C)cc1` (configuration not stated)?
PV pol inh: 113; PV pol inh intensity: 113

Results for CCc1ccc(CNC(=O)Cn2c(-c3cccs3)cc3cc(F)ccc32)cc1 ?
PV pol inh: 110; PV pol inh intensity: 111

What do the screens show for `CCc1ccc(S(=O)(=O)Nc2cc3c(C(=O)OCc4ccccc4)c(C)oc3c3ccccc23)cc1`?
PV pol inh: 108; PV pol inh intensity: 111

Results for COc1ccc(Cn2c(CO)cnc2SCC(=O)Nc2ccc3c(c2)OCCO3)cc1 ?
PV pol inh: 105; PV pol inh intensity: 105

Results for COc1cccc2c1cc1c(=O)n(CC(=O)N3CCN(c4ccc(F)cc4)CC3)nc(C)n12 ?
PV pol inh: 101; PV pol inh intensity: 106

What do the screens show for `O=C(NCc1cccs1)c1nn(-c2ccccc2F)nc1CO`?
PV pol inh: 111; PV pol inh intensity: 109

How did COC(=O)c1ccc(NC(=O)CSc2nc3ccc(OC)cc3[nH]2)cc1 do in these assays?
PV pol inh: 110; PV pol inh intensity: 110

How did COc1ccccc1CNc1ccc(-c2nc(-c3ccccn3)no2)cc1[N+](=O)[O-] do in these assays?
PV pol inh: 106; PV pol inh intensity: 111

How did Cc1ccc(-c2nc3cccnc3s2)cc1NC(=O)C(C)C do in these assays?
PV pol inh: 108; PV pol inh intensity: 101

Results for CC(C)c1ccc(NC(=O)CN2C(=O)COc3ccc(S(=O)(=O)N4CCOCC4)cc32)cc1 ?
PV pol inh: 120; PV pol inh intensity: 116

Results for CCN(CC)CCNC(=O)C1CCN(c2cc(C)nc3c(-c4ccc(Cl)cc4)c(C)nn23)CC1 ?
PV pol inh: 107; PV pol inh intensity: 106

What do the screens show for `COc1cccc(CNC(=O)c2ccc3c(c2)c(C)c(C)n3Cc2ccccc2)c1`?
PV pol inh: 104; PV pol inh intensity: 106

What do the screens show for `CCOc1ccc(CCNC(=O)c2c(C)oc3ncn(CC(C)C)c(=O)c23)cc1OCC`?
PV pol inh: 111; PV pol inh intensity: 106

What do the screens show for `Cc1ccc(-c2nc3cc(NC(=O)Cc4ccc(Cl)cc4)ccc3o2)cc1`?
PV pol inh: 108; PV pol inh intensity: 110

What do the screens show for `COC(=O)c1ccccc1NS(=O)(=O)c1ccc2c(c1)CCCN2C(C)=O`?
PV pol inh: 104; PV pol inh intensity: 104

Results for COc1ccc(C2C(C(=O)Nc3ccccc3)=C(C)Nc3nc(-c4ccccc4)nn32)c(OC)c1 (configuration not stated) ?
PV pol inh: 108; PV pol inh intensity: 106

Results for Cc1ccc(NC(=O)NCc2c(-n3cccc3)sc3c2CCCC3)c(Cl)c1 ?
PV pol inh: 97; PV pol inh intensity: 96

How did COc1ccc(C2NC(=O)NC(C)=C2C(=O)Nc2ccccc2)cc1OC (configuration not stated) do in these assays?
PV pol inh: 99; PV pol inh intensity: 101

Results for Cc1ccc(C)c(Nc2ncnc3onc(C)c23)c1 ?
PV pol inh: 102; PV pol inh intensity: 100

Results for O=C(NCCOCCO)C(=O)Nc1c2c(nn1-c1ccc(F)cc1)CSC2 ?
PV pol inh: 106; PV pol inh intensity: 110

How did CC1=C(C(=O)Nc2ccc(C)cc2C)C(c2cccs2)n2nc(SCc3cccc(C)c3)nc2N1 (configuration not stated) do in these assays?
PV pol inh: 109; PV pol inh intensity: 114

Results for CC(=O)c1cc(-c2ccc(F)cc2)n(CCC(=O)NCc2ccc(C)cc2)c1C ?
PV pol inh: 104; PV pol inh intensity: 115

How did CCOc1ccc(CCNC(=O)Cn2nnc(-c3ccc(OC)c(OC)c3)n2)cc1OCC do in these assays?
PV pol inh: 102; PV pol inh intensity: 106

What do the screens show for `COc1ccc(NC(=O)c2cnc(N3CCOCC3)c3ccccc23)cc1OC`?
PV pol inh: 113; PV pol inh intensity: 109

How did Cc1cccc(S(=O)(=O)c2cn(C)c3cc(N4CCC(C)CC4)c(F)cc3c2=O)c1 do in these assays?
PV pol inh: 111; PV pol inh intensity: 106

What do the screens show for `CCc1ccc(-c2nc(SCC(=O)NCC3CCCO3)c(-c3ccc(C)cc3)[nH]2)cc1` (configuration not stated)?
PV pol inh: 115; PV pol inh intensity: 115

How did Cc1ccc(-n2ncc3c(Nc4ccc5c(c4)OCCO5)ncnc32)cc1C do in these assays?
PV pol inh: 111; PV pol inh intensity: 111

Results for Cc1c(C(=O)NC(C)c2ccccc2)sc2nc3n(c(=O)c12)CCCC3 (configuration not stated) ?
PV pol inh: 105; PV pol inh intensity: 111

How did Cc1ccc(NC(=O)Cn2nnc(C(=O)NCc3cccs3)c2N)cc1Cl do in these assays?
PV pol inh: 115; PV pol inh intensity: 113

Results for O=C(CSc1ncc2c(n1)-c1cc(Cl)ccc1N(Cc1ccccc1)S2(=O)=O)NCc1ccccc1 ?
PV pol inh: 111; PV pol inh intensity: 115

How did COc1ccc(CCNC(=O)CN(c2ccccc2)S(=O)(=O)N(C)C)cc1 do in these assays?
PV pol inh: 106; PV pol inh intensity: 107

Results for CCOc1ccc(-n2nc3ccc(NC(=O)Cc4ccccc4)cc3n2)cc1 ?
PV pol inh: 107; PV pol inh intensity: 111

What do the screens show for `COc1ccc(OC)c(-n2nnc(-c3nc(-c4cc(OC)c(OC)c(OC)c4)no3)c2C)c1`?
PV pol inh: 107; PV pol inh intensity: 114

Results for CCSc1ncc(Cl)c(C(=O)N(Cc2ccccc2)Cc2ccco2)n1 ?
PV pol inh: 107; PV pol inh intensity: 102

Results for Cc1cc(C)cc(NC(=O)Cn2c(=O)n(CC(=O)NCCc3ccccc3)c(=O)c3ccccc32)c1 ?
PV pol inh: 104; PV pol inh intensity: 106

Results for COc1ccc(C2CC(=O)c3c([nH]c(C(=O)OCCOc4ccccc4)c3C)C2)cc1OC (configuration not stated) ?
PV pol inh: 106; PV pol inh intensity: 100

Results for CCOc1ccc(CCNC(=O)c2ccc(Nc3nc4ccccc4n4nnnc34)cc2)cc1OCC ?
PV pol inh: 102; PV pol inh intensity: 100

What do the screens show for `CCN(CC)C(=O)C1CCCN(c2ncnc3c2c(-c2ccccc2)cn3-c2cccc(C)c2)C1` (configuration not stated)?
PV pol inh: 110; PV pol inh intensity: 109

How did O=C(Nc1ccc2oc(-c3cccc(F)c3)nc2c1)c1ccc2ccccc2c1 do in these assays?
PV pol inh: 103; PV pol inh intensity: 106

Results for Clc1ccc(-c2csc(=Nc3ccccc3)n2Cc2ccc3c(c2)OCO3)cc1 ?
PV pol inh: 97; PV pol inh intensity: 98

Results for Cc1cccc(Cn2c(=O)n(CCCC(=O)NCc3ccccc3Cl)c(=O)c3ccccc32)c1 ?
PV pol inh: 110; PV pol inh intensity: 105

How did Cc1ccc(-c2nc3scc(CCNS(=O)(=O)c4ccc(F)c(C)c4)n3n2)cc1 do in these assays?
PV pol inh: 111; PV pol inh intensity: 111

What do the screens show for `CCc1ccc(-n2c(SCc3cccc(F)c3)nc3[nH]ncc3c2=O)cc1`?
PV pol inh: 103; PV pol inh intensity: 105

How did COc1ccc(Cl)cc1C(=O)NCC(c1ccc(N(C)C)cc1)N1CCOCC1 (configuration not stated) do in these assays?
PV pol inh: 105; PV pol inh intensity: 104

Results for Cc1ccc(CCNC(=O)CN2C(=O)COc3ccc(S(=O)(=O)N4CCCCC4)cc32)cc1 ?
PV pol inh: 120; PV pol inh intensity: 114

Results for CCCOc1ccc(/C=C/C(=O)Nc2sc(C)c(C)c2C(=O)OCC)cc1OC ?
PV pol inh: 73*; PV pol inh intensity: 75*

How did COc1ccc(OCC(=O)Nc2nc(-c3ccc(Br)cc3)ns2)cc1 do in these assays?
PV pol inh: 105; PV pol inh intensity: 98

What do the screens show for `CC(=O)c1ccc(NC(=O)c2nc(-c3ccccc3)n(-c3ccccc3)n2)cc1`?
PV pol inh: 111; PV pol inh intensity: 105

What do the screens show for `CCOc1ccc(-c2nonc2NC(=O)c2ccc(C)cc2)cc1OCC`?
PV pol inh: 102; PV pol inh intensity: 110

How did Cc1cc(C)cc(NC(=O)CCS(=O)(=O)c2cccc3nsnc23)c1 do in these assays?
PV pol inh: 108; PV pol inh intensity: 107

How did CCOC(=O)c1nc(NCc2ccc(Cl)cc2)c2c(C)noc2n1 do in these assays?
PV pol inh: 109; PV pol inh intensity: 114

What do the screens show for `CN(CC(=O)NCc1ccc(Cl)cc1)S(=O)(=O)c1ccc2[nH]c3c(c2c1)CCCC3`?
PV pol inh: 111; PV pol inh intensity: 109

How did Cc1ccc(OCc2nc(-c3ccc(C(=O)N4CCN(c5cc(Cl)ccc5C)CC4)cc3)oc2C)cc1 do in these assays?
PV pol inh: 107; PV pol inh intensity: 109

What do the screens show for `CCCC(=O)Nc1ccc2oc(-c3ccc(O)c(Br)c3)nc2c1`?
PV pol inh: 109; PV pol inh intensity: 114

What do the screens show for `CCCn1c(SCc2nc(-c3ccccc3OCC)no2)nnc1-c1ccc(Cl)cc1`?
PV pol inh: 101; PV pol inh intensity: 106

How did NS(=O)(=O)c1ccc(NC(=O)c2csnn2)cc1 do in these assays?
PV pol inh: 105; PV pol inh intensity: 110

How did COc1ccc(S(=O)(=O)N(CC(=O)Nc2cc(C)ccc2OC)Cc2ccccc2)cc1 do in these assays?
PV pol inh: 107; PV pol inh intensity: 111

Reprinted from the listing (eleven entries):
How did COc1ccc(OCC(=O)Nc2nc(-c3ccc(Br)cc3)ns2)cc1 do in these assays?
PV pol inh: 105; PV pol inh intensity: 98

What do the screens show for `CC(=O)c1ccc(NC(=O)c2nc(-c3ccccc3)n(-c3ccccc3)n2)cc1`?
PV pol inh: 111; PV pol inh intensity: 105

What do the screens show for `CCOc1ccc(-c2nonc2NC(=O)c2ccc(C)cc2)cc1OCC`?
PV pol inh: 102; PV pol inh intensity: 110

How did Cc1cc(C)cc(NC(=O)CCS(=O)(=O)c2cccc3nsnc23)c1 do in these assays?
PV pol inh: 108; PV pol inh intensity: 107

How did CCOC(=O)c1nc(NCc2ccc(Cl)cc2)c2c(C)noc2n1 do in these assays?
PV pol inh: 109; PV pol inh intensity: 114

What do the screens show for `CN(CC(=O)NCc1ccc(Cl)cc1)S(=O)(=O)c1ccc2[nH]c3c(c2c1)CCCC3`?
PV pol inh: 111; PV pol inh intensity: 109

How did Cc1ccc(OCc2nc(-c3ccc(C(=O)N4CCN(c5cc(Cl)ccc5C)CC4)cc3)oc2C)cc1 do in these assays?
PV pol inh: 107; PV pol inh intensity: 109

What do the screens show for `CCCC(=O)Nc1ccc2oc(-c3ccc(O)c(Br)c3)nc2c1`?
PV pol inh: 109; PV pol inh intensity: 114

What do the screens show for `CCCn1c(SCc2nc(-c3ccccc3OCC)no2)nnc1-c1ccc(Cl)cc1`?
PV pol inh: 101; PV pol inh intensity: 106

How did NS(=O)(=O)c1ccc(NC(=O)c2csnn2)cc1 do in these assays?
PV pol inh: 105; PV pol inh intensity: 110

How did COc1ccc(S(=O)(=O)N(CC(=O)Nc2cc(C)ccc2OC)Cc2ccccc2)cc1 do in these assays?
PV pol inh: 107; PV pol inh intensity: 111
